# Bioassay records (PubChem BioAssay)
# AF4-AF9 inh – inhibitors of AF4 peptide binding to AF9, primary screen, biochemical, AlphaScreen, biotin-AF4 peptide, FLAG-AF9, single point. inhibition, % at 10 µM. Protein AF-9 (Homo sapiens), P42568. 0.47% of 350,000 active;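 active = every replicate reaching a set inhibition limit, whatever the replicate mean, cut at about 25% in these data; inconclusive = mean inhibition reaches that limit but some replicates miss it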;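 note: 0% = plate neutral control median and 100% = total signal loss; the record names both 10 and 1 µM as test concentration; the first replicate is given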
# Target sequence (P42568 whole entry, looked up): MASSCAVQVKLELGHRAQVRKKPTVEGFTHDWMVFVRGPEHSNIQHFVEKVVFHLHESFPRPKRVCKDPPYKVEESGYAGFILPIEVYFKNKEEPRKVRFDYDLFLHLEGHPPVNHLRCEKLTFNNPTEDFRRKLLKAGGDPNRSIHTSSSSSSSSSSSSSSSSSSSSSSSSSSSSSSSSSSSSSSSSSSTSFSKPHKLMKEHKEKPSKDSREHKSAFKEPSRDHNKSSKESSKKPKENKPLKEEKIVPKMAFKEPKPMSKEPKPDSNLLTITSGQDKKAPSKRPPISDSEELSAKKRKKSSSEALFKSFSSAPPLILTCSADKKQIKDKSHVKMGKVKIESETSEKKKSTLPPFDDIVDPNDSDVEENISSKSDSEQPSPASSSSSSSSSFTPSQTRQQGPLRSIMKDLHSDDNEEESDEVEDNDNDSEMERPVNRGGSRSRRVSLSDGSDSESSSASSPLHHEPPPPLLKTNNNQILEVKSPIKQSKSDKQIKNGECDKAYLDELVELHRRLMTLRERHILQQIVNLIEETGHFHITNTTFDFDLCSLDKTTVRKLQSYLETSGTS
# FGF22 binding – binders of human FGF22 protein, primary screen, FGF22 synaptogenesis inhibitor project, biophysical, thermal shift, single point. Fibroblast growth factor 22 (Homo sapiens), Q9HCT0. recombinant FGF22 thermal shift, SYPRO orange fluorescence; percent of sucrose octasulfate shift, DMSO zero. calls only at 9.99 µM. 1.5% of 340,000 active. AID 651658, 2012;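 active = melting point raised past a set limit in the mean and every replicate; inconclusive = no clear call; three in four hits are not shown here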
# Target sequence (Q9HCT0 whole entry, looked up): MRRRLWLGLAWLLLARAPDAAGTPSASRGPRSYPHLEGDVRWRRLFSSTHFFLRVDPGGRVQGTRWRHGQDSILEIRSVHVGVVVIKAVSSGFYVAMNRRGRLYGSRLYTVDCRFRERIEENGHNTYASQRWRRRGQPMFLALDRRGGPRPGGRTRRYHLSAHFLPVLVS
# An asterisk follows results filed as active; i = inactive; ? = inconclusive; nt = not tested or not shown. A portion of the library. The share of hits here may be higher or lower than overall.
# The opening 6 compounds (preview)
canonical_smiles	AF4-AF9 inh	FGF22 binding
C[C@@H]1CN([C@H](C)CO)C(=O)c2cc(NS(C)(=O)=O)ccc2O[C@@H](C)CCCCO[C@H]1CN(C)C(=O)Nc1ccc(C(F)(F)F)cc1	0.1	i
CCC(=O)N1C[C@H](C)[C@H](OC)CN(C)C(=O)c2ccc(NC(=O)NC(C)C)cc2OC[C@H]1C	-0.3	i
CCCNC(=O)N1CC2(CN(Cc3cccc(OC)c3)C2)c2c(n(C)c3cc(OC)ccc23)[C@H]1CO	?	i
C[C@H](CO)N1C[C@H](C)[C@@H](CN(C)C)Oc2ncc(-c3ccccc3)cc2C1=O	-3.7	i
N#C[C@H]1[C@@H](c2ccc(C3=CCCCC3)cc2)[C@H](CO)N1S(=O)(=O)c1ccccc1	6.8	i
C[C@@H]1CN([C@@H](C)CO)C(=O)c2cccc(NC(=O)Nc3ccccc3)c2O[C@@H]1CN(C)C(=O)Nc1ccc(C(F)(F)F)cc1	-0.8	i

# Results, previewed entries included:
canonical_smiles	AF4-AF9 inh	FGF22 binding
C[C@@H]1CN([C@H](C)CO)C(=O)c2cc(NS(C)(=O)=O)ccc2O[C@@H](C)CCCCO[C@H]1CN(C)C(=O)Nc1ccc(C(F)(F)F)cc1	0.1	i
CCC(=O)N1C[C@H](C)[C@H](OC)CN(C)C(=O)c2ccc(NC(=O)NC(C)C)cc2OC[C@H]1C	-0.3	i
CCCNC(=O)N1CC2(CN(Cc3cccc(OC)c3)C2)c2c(n(C)c3cc(OC)ccc23)[C@H]1CO	?	i
C[C@H](CO)N1C[C@H](C)[C@@H](CN(C)C)Oc2ncc(-c3ccccc3)cc2C1=O	-3.7	i
N#C[C@H]1[C@@H](c2ccc(C3=CCCCC3)cc2)[C@H](CO)N1S(=O)(=O)c1ccccc1	6.8	i
C[C@@H]1CN([C@@H](C)CO)C(=O)c2cccc(NC(=O)Nc3ccccc3)c2O[C@@H]1CN(C)C(=O)Nc1ccc(C(F)(F)F)cc1	-0.8	i
Cc1noc(C)c1S(=O)(=O)N(C)C[C@H]1OCCCC[C@H](C)Oc2ccc(NS(=O)(=O)c3cccs3)cc2C(=O)N([C@@H](C)CO)C[C@@H]1C	3.7	i
CN(C)CC#Cc1cccc(-c2nc(C(=O)NCc3ccc4c(c3)OCO4)cc3c2[C@H](CCO)N(S(=O)C(C)(C)C)C3)c1 (some centres not stated)	6.1	i
COc1ccc(CNC(=O)C[C@@H]2CC[C@H](NC(=O)Nc3ccc4c(c3)OCO4)[C@@H](CO)O2)cc1	-9.1	i
C[C@@H]1CN([C@H](C)CO)C(=O)c2cc(C#CCC3CCCC3)cnc2O[C@H]1CN(C)C(=O)c1cnccn1	0.2	i
CC(C)NC(=O)Nc1ccc2c(c1)C(=O)N([C@@H](C)CO)C[C@H](C)[C@H](CN(C)Cc1ccc(C(F)(F)F)cc1)OCCCC[C@H](C)O2	5.9	i
COCC(=O)N(C)C[C@@H]1Oc2cc(C#CCC3CCCC3)ccc2S(=O)(=O)N([C@H](C)CO)C[C@@H]1C	5.8	i
O=C(Nc1cccc(Cl)c1)N1C[C@@H]2[C@H](c3ccccc31)[C@@H](CO)N2C(=O)c1ccncc1	1.1	i
CN(C)C(=O)c1ccc(-c2ccc([C@@H]3[C@H](C#N)N(C(=O)C4CC4)[C@H]3CO)cc2)cc1	-3.9	i
COc1ccccc1-c1cnc2c(c1)C(=O)N([C@H](C)CO)C[C@@H](C)[C@@H](CN(C)Cc1cncnc1)O2	-3.5	i

# Next part:
canonical_smiles	AF4-AF9 inh	FGF22 binding
C[C@H]1CN([C@@H](C)CO)C(=O)c2cc(-c3cccnc3)cnc2O[C@H]1CN(C)C(=O)Nc1ccc(F)cc1	-3.9	i
CO[C@H](CN(C)S(=O)(=O)c1ccc(C)cc1)[C@@H](C)CN(Cc1ccccc1Cl)[C@H](C)CO	-2.4	i
Cc1ccc(S(=O)(=O)Nc2ccc3c(c2)C(=O)N([C@H](C)CO)C[C@@H](C)[C@H](CN(C)S(C)(=O)=O)O3)cc1	-1.7	i
COc1ccccc1NC(=O)N1CC[C@@H]2[C@@H](CO)N(C)c3ccc(-c4cccc(F)c4)cc3[C@@H]21	3.6	i
C[C@@H]1CN([C@@H](C)CO)C(=O)c2cccc(NC(=O)C3CCOCC3)c2O[C@@H]1CN(C)S(=O)(=O)c1ccccc1	-0.6	i
COc1ccc(NC(=O)N(C)C[C@@H]2OCCCC[C@H](C)Oc3ccc(NS(=O)(=O)c4ccc(Cl)cc4)cc3C(=O)N([C@H](C)CO)C[C@@H]2C)cc1	1.4	i
O=S(=O)(c1cccc2cccnc12)N1CCN(Cc2ccc(OCCO)cc2)CC1	0.6	i
C[C@@H]1CN([C@H](C)CO)C(=O)c2cc(/C=C/c3ccccc3)cnc2O[C@@H]1CN(C)C(=O)c1cccc(F)c1	2.0	i
CN(C)C(=O)c1ccc(-c2ccc([C@@H]3[C@H]4CN(S(C)(=O)=O)CCCCN4[C@H]3CO)cc2)cc1	-7.6	i
COc1ccc2c3c(n(C)c2c1)[C@H](CO)N(C(C)=O)CC31CN(C(=O)C2CCOCC2)C1	-2.6	i
CCOC(=O)CN1C(=O)N(c2ccc(OC)cc2)[C@H]2CC3c4ccccc4C[C@]3(C)[C@@H](C(=O)N(C)C3CCCCC3)C[C@H]21 (some centres not stated)	3.6	nt
CNC[C@@H]1Oc2ccc(NC(=O)Nc3ccc(C(F)(F)F)cc3)cc2CC(=O)N([C@@H](C)CO)C[C@H]1C	8.1	i
CCCNC(=O)N(C)C[C@H]1Oc2cc(-c3cncnc3)ccc2S(=O)(=O)N([C@@H](C)CO)C[C@@H]1C	-2.5	i
COCC(=O)N(C)C[C@H]1Oc2cc(-c3ccc(OC)cc3)ccc2S(=O)(=O)N([C@@H](C)CO)C[C@H]1C	-0.5	i
Cc1ccc(S(=O)(=O)Nc2ccc3c(c2)C(=O)N([C@@H](C)CO)C[C@@H](C)[C@@H](CN(C)CC2CCCCC2)OCCCC[C@H](C)O3)cc1	-6.8	i

# Additional structures
canonical_smiles	AF4-AF9 inh	FGF22 binding
Cn1cnc([N+](=O)[O-])c1Sc1nnc(-c2ccccc2)c(-c2ccccc2)n1	8.3	i
CCNC(=O)C[C@H]1C=C[C@H](NS(=O)(=O)c2ccc(C)cc2)[C@@H](CO)O1	-2.4	i
C[C@@H]1CN([C@@H](C)CO)C(=O)c2c(c3ccccc3n2C)-c2ccccc2CO[C@@H]1CN(C)Cc1cccc(C(=O)O)c1	-2.4	i
C[C@H]1CN([C@@H](C)CO)C(=O)c2cccc(NS(=O)(=O)c3cccs3)c2O[C@H]1CN(C)S(=O)(=O)c1ccc(F)cc1	0.1	i
O=S(=O)(c1ccccc1F)N1CCCCN2[C@H](CO)[C@@H](c3ccc(-c4cccnc4)cc3)[C@@H]2C1	-5.5	i
CCCN1[C@@H]2c3ccc(-c4cccnc4)c(=O)n3C[C@H]1[C@H](CO)[C@H]2C(=O)NC1CCC1	-1.1	i
O=C(Nc1cc(F)ccc1F)N1C[C@H]2[C@@H](c3ccccc31)[C@@H](CO)N2CC1CCCC1	0.2	i
C[C@@H]1CN([C@H](C)CO)C(=O)c2cc(NC(=O)Nc3ccccc3)ccc2O[C@@H](C)CCCCO[C@@H]1CN(C)C	0.4	i
Cc1cccc(-c2ccc([C@H]3[C@H]4CN(Cc5ccncc5)CCCCN4[C@H]3CO)cc2)c1	5.0	i
C[C@H](CO)N1C[C@H](C)[C@H](CN(C)C(=O)CN(C)C)Oc2cc(C#CC3CC3)ccc2S1(=O)=O	1.8	i
O=C(C[C@H]1CC[C@H]2[C@@H](COC[C@@H](O)CN2Cc2ccccc2F)O1)N[C@H]1CCN(Cc2ccccc2)C1	4.2	i
COCCNC(=O)C[C@@H]1CC[C@@H]2[C@H](COC[C@H](O)CN2Cc2ccc(Cl)c(Cl)c2)O1	-2.1	i
O=C([C@@H]1N[C@@H]2c3ccc(C4=CCCC4)c(=O)n3C[C@@H]2[C@H]1CO)N1CCc2ccccc2C1	1.1	i
Cc1cc(C(=O)Nc2cccc3c2O[C@@H](CN(C)Cc2ccc(C(F)(F)F)cc2)[C@H](C)CN([C@@H](C)CO)C3=O)n(C)n1	1.5	i
Cc1ccc(S(=O)(=O)N(C)C[C@H]2Oc3ccc(N(C)C)cc3C(=O)N([C@H](C)CO)C[C@@H]2C)cc1	4.3	i

# Going on with the list:
canonical_smiles	AF4-AF9 inh	FGF22 binding
O=S(=O)(c1ccc(F)cc1)N1CCCCN2[C@H](CO)[C@@H](c3ccc(-c4cncnc4)cc3)[C@H]2C1	-0.7	i
CCC(=O)N1C[C@H](C)[C@@H](OC)CN(C)C(=O)c2cc(NC(=O)c3ccccc3)ccc2OC[C@@H]1C	4.1	i
C[C@@H]1CN([C@@H](C)CO)C(=O)c2cccc(NC(=O)NC3CCCCC3)c2O[C@@H]1CN(C)C(=O)Nc1ccc(C(F)(F)F)cc1	5.0	i
CN(C)CC#Cc1ccc([C@H]2[C@@H](CO)N(C(=O)C3CCC3)[C@H]2C#N)cc1	0.5	i
CS(=O)(=O)Nc1ccc2c(c1)[C@@H]1C[C@@H](CC(=O)NCc3cccnc3)O[C@@H](CO)[C@@H]1O2	-1.7	i
C/C=C/c1ccc([C@@H]2[C@H](CO)N(C(=O)c3cnccn3)C23CN(C(=O)C2CCC2)C3)cc1	5.5	i
Cc1ccc(NC(=O)Nc2ccc3c(c2)C(=O)N(C)[C@@H]2CC[C@H](CC(=O)O)O[C@@H]2CO3)cc1	0.0	i
C[C@H]1CCCCO[C@H](CN(C)C(=O)Nc2ccc3c(c2)OCO3)[C@@H](C)CN([C@@H](C)CO)C(=O)c2cc(NS(=O)(=O)c3cn(C)cn3)ccc2O1	-1.9	i
COc1ccc(CN(C)C[C@H]2Oc3ccc(NS(=O)(=O)c4cccs4)cc3C(=O)N([C@H](C)CO)C[C@H]2C)cc1	1.6	i
C[C@@H]1CN([C@@H](C)CO)C(=O)c2cc(C#C[C@@H](C)O)cnc2O[C@H]1CN(C)Cc1ccccn1	-1.8	i
O=C(Nc1ccccc1)N[C@@H]1CC[C@H](CCNC(=O)c2ccccc2F)O[C@H]1CO	1.3	i
Cc1ccc(S(=O)(=O)N2CC[C@H]3[C@@H](CO)N(C)c4ccc(-c5cccc(C#N)c5)cc4[C@H]32)cc1	-0.3	i
C[C@H](CO)N1C[C@H](C)[C@H](CN(C)C(=O)C2CCCCC2)Oc2cc(C#C[C@@H](C)O)ccc2S1(=O)=O	-0.2	i
Cc1noc(C)c1S(=O)(=O)N(C)C[C@@H]1OCCCC[C@@H](C)Oc2ccc(NC(=O)Nc3ccccc3)cc2C(=O)N([C@@H](C)CO)C[C@H]1C	4.6	i
C[C@H](CO)N1C[C@H](C)[C@@H](CN(C)C(=O)Nc2ccccc2)OCCCC[C@H](C)Oc2ccc(NC(=O)c3ccccc3)cc2C1=O	1.7	i

# The list continues:
canonical_smiles	AF4-AF9 inh	FGF22 binding
COc1ccc(NC(=O)Nc2ccc3c(c2)C(=O)N([C@H](C)CO)C[C@H](C)[C@@H](CN(C)S(=O)(=O)c2cccs2)OCCCC[C@@H](C)O3)cc1	0.2	i
C[C@H]1CN([C@@H](C)CO)C(=O)Cc2cc(NC(=O)Cc3cn(C)c4ccccc34)ccc2O[C@H]1CN(C)C(=O)Nc1ccc2c(c1)OCO2	5.7	i
Cc1cccc(CN(C)C[C@@H]2Oc3ncc(-c4ccccc4)cc3C(=O)N([C@H](C)CO)C[C@@H]2C)c1	0.3	i
COCC#Cc1cnc2c(c1)C(=O)N([C@@H](C)CO)C[C@H](C)[C@H](CN(C)Cc1ccccc1)O2	-2.4	i
COc1ccc2c3c(n(C)c2c1)[C@@H](CO)NCC31CCN(S(=O)(=O)c2ccc(C)cc2)CC1	6.2	i
O=C(C[C@@H]1C[C@H]2c3cc(NS(=O)(=O)c4ccccc4)ccc3O[C@H]2[C@@H](CO)O1)NC1CCCCC1	1.2	i
COc1ccc(S(=O)(=O)N(C)C[C@@H]2OCCCC[C@H](C)Oc3ccc(NC(=O)Nc4ccc(C(F)(F)F)cc4)cc3C(=O)N([C@H](C)CO)C[C@@H]2C)cc1	-11.2	i
COCC#Cc1cnc2c(c1)C(=O)N([C@H](C)CO)C[C@@H](C)[C@H](CN(C)C(=O)CN1CCOCC1)O2	-1.9	i
C[C@@H]1CCCCO[C@@H](CN(C)Cc2ccc(C(F)(F)F)cc2)[C@H](C)CN([C@H](C)CO)C(=O)c2cc(NC(=O)Nc3ccc4c(c3)OCO4)ccc2O1	2.3	i
COc1ccc(NC(=O)Nc2ccc3c(c2)C(=O)N([C@H](C)CO)C[C@H](C)[C@H](CN(C)Cc2ccc(Cl)c(Cl)c2)OCCCC[C@@H](C)O3)cc1	-1.6	i
C[C@@H]1CN([C@H](C)CO)C(=O)c2ccccc2-c2ccccc2CO[C@H]1CN(C)S(=O)(=O)c1ccc(Cl)cc1	11.3	i
O=C(Nc1ccc(F)cc1)N[C@@H]1CC[C@H](CC(=O)N2CCCCC2)O[C@@H]1CO	-11.3	i
CCN1C(=O)N[C@H]2C[C@H](C(=O)N3CCCC3)[C@H](C)[C@H](c3ccccc3)C[C@H]21	-4.3	nt
C[C@@H]1CCCCO[C@H](CN(C)S(=O)(=O)c2ccc(Cl)cc2)[C@@H](C)CN([C@H](C)CO)C(=O)c2cc(NC(=O)Nc3ccccc3)ccc2O1	-0.5	i
COc1ccc(NC(=O)N(C)C[C@H]2Oc3ncc(C#CCN(C)C)cc3C(=O)N([C@@H](C)CO)C[C@H]2C)cc1	-2.7	i
